Bioassay records from PubChem BioAssay.
MITF inh: inhibitors of MITF, primary screen, MITF inhibitor project, cell-based, luminescence | 0.28% of 37,000 active | TRPM1 promoter luciferase, 24 h | inhibition, % (test concentration not listed) | AID 2240, 2010;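 active = most replicates at 85% or more, or half of them and the mean; inconclusive = half reach 85% but not the mean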;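 note: human melanocyte line stably carrying TRPM1 promoter luciferase reporter; 0% = vehicle wells and 100% = a positive control; the first replicate is given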
Hedgehog inh: Hedgehog pathway signaling inhibitors, primary screen, luminescence, Shh-LIGHT2 cells, Gli-luciferase; Shh-LIGHT2 Gli-luciferase reporter, 30 h; inhibition, % (test concentration not listed); 2.1% of 22,000 active; AID 2313, 2010;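 active = replicate mean of 65% or more; inconclusive = mean lower but half the replicates past it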;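 note: pathway switched on by Shh-conditioned medium diluted 1 in 25 in low serum; 100 nL library stock added to about 40 µL; 0% = median of neutral wells and 100% = positive control level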
YB-1 expr inh: inhibitors of YB-1 gene expression, primary screen, cell-based, fluorescence; U2OS, qRT-PCR YB-1 vs CDIP delta delta Cp, 16 h; hits give high values; zero = DMSO, each unit about twofold; delta delta Cp (YB-1 minus CDIP) (concentration not given with the values); 0.37% of 30,000 active;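 active = delta delta Cp rounded down to an integer at or above 3, about 3 SD of DMSO wells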;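 note: higher means less YB-1 transcript or more CDIP transcript relative to DMSO; stock transfer was 100 nL into about 100 µL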
PD-1 reverse act: activators reversing PD-1 mediated T-cell inhibition, primary screen, luminescence, primary human CD4 T cells, PD-L1 beads. 29,000 tested, under 10 active. AID 2316, 2010. CellTiter-Glo 96 h. activation, % (no concentration beside the values);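 active = replicate mean of 50% or more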;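 note: 0% = median vehicle wells and 100% = positive control; 100 nL library stock added to about 50 µL; numbers are from one replicate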
Numbers without * were called inactive; ? = inconclusive; · = not tested or not shown. Only part of the results is shown (hit frequency here may not be typical).

SMILES	MITF inh	Hedgehog inh	YB-1 expr inh	PD-1 reverse act
NC(CC(=O)O)c1cccc([N+](=O)[O-])c1 (stereo not drawn)	0.6	·	·	3.4
Cc1noc(C)c1S(=O)(=O)Nc1ccc2c(c1)CC(=O)N([C@H](C)CO)C[C@@H](C)[C@@H](CN(C)Cc1ccc(C(F)(F)F)cc1)O2	-2.7	-15.5	0.0563	·
C[C@@H]1CN([C@@H](C)CO)C(=O)Cc2cc(NC(=O)Nc3ccc(F)cc3)ccc2O[C@@H]1CN(C)C(=O)NC1CCCCC1	-2.1	21.7	0.41	-0.9
CC(Sc1nc(-c2ccccc2)c(C#N)c(=O)[nH]1)C(=O)Nc1ccc(Cl)cc1 (stereo not drawn)	9.1	·	·	0.8
C[C@@H]1CN([C@@H](C)CO)C(=O)Cc2cc(NC(=O)CCN3CCOCC3)ccc2O[C@@H]1CN(C)Cc1ccc(C(F)(F)F)cc1	-21.5	-8.3	-0.187	-3.2
C[C@H]1CN([C@@H](C)CO)C(=O)Cc2cc(NC(=O)Nc3ccc4c(c3)OCO4)ccc2O[C@@H]1CN(C)S(=O)(=O)c1cn(C)cn1	1.0	-12.5	-0.101	0.3
CNC[C@H]1OCCCC[C@@H](C)Oc2ccc(NS(=O)(=O)c3ccc(OC)cc3)cc2C(=O)N([C@H](C)CO)C[C@@H]1C	-6.5	3.3	0.15	1.5
CC1=CC(=O)CC2[C@@]1(C)CC[C@@H](C)[C@]2(C)CCC(C)CC(=O)O (stereo partly drawn)	15.2	-4.2	0.287	-0.2
COc1ccc(S(=O)(=O)N(C)C[C@@H]2Oc3ccc(NC(=O)Cn4cnnn4)cc3CC(=O)N([C@H](C)CO)C[C@H]2C)cc1	-11.8	·	0.149	·
C[C@@H]1CN([C@H](C)CO)C(=O)Cc2cc(NC(=O)Nc3ccccc3)ccc2O[C@H]1CN(C)Cc1ccc(C(=O)O)cc1	-6.7	26.8	0.123	2.6
N#Cc1cc(C#N)c(SCC(=O)NCc2ccco2)nc1N	-5.9	-36.4	-0.524	-0.5
C[C@H]1CN([C@@H](C)CO)C(=O)Cc2cc(NC(=O)Nc3ccccc3)ccc2O[C@H]1CN(C)S(=O)(=O)c1cn(C)cn1	-4.7	-32.8	-0.102	3.3
CC1(C)CC(NC(=O)c2ccccc2C(=O)NC2CC(C)(C)NC(C)(C)C2)CC(C)(C)N1	-2.4	-19.4	0.533	1.6
Cc1noc(C)c1NC(=O)N(C)C[C@H]1Oc2ccc(NC(=O)C3CCCCC3)cc2CC(=O)N([C@H](C)CO)C[C@H]1C	0.4	-24.2	-0.113	1.4
COC(=O)Nc1scc(-c2ccccc2)c1C(=O)NCc1ccco1	-27.3	·	·	0.3
Cc1ccc(N(Cc2ccc(C(=O)Nc3cc([N+](=O)[O-])ccc3C)cc2)S(C)(=O)=O)cc1C	16.5	·	·	-4.0
COc1ccc(S(=O)(=O)NCc2ccco2)cc1[N+](=O)[O-]	0.2	·	·	0.2
C[C@H](CO)N1C[C@H](C)[C@@H](CN(C)Cc2ccc(C(=O)Nc3ccccc3N)cc2)Oc2c(NC(=O)c3ccc(-c4nccs4)cc3)cccc2C1=O	22.5	·	-0.187	-3.2
C[C@H]1CN([C@@H](C)CO)C(=O)Cc2cc(NS(=O)(=O)c3cccs3)ccc2O[C@@H]1CN(C)Cc1ccc(Oc2ccccc2)cc1	5.1	29.5	-0.2	-2.4
C=C[C@@]1(C)C[C@H](O)[C@@H]2[C@@H](OC(O)[C@H]2C)[C@@H]1C(=C)C (stereo partly drawn)	·	-17.4	0.658	·
CNC[C@H]1Oc2ccc(NS(=O)(=O)c3c(C)noc3C)cc2CC(=O)N([C@H](C)CO)C[C@H]1C	-31.7	-21.6	0.431	·
CCN(CC)C(=S)Oc1ccccc1C(=O)Nc1ccc(Cl)c(Cl)c1	5.3	-9.2	-0.326	2.0
COc1ccc(NC(=O)Nc2cccc3c2O[C@H](CN(C)C(=O)Nc2ccccc2)[C@@H](C)CN([C@H](C)CO)C3=O)cc1	-17.9	9.6	0.555	·
Cc1noc(C)c1NC(=O)N(C)C[C@H]1Oc2ccc(NS(=O)(=O)c3ccccc3)cc2C(=O)N([C@H](C)CO)C[C@H]1C	3.0	·	0.191	1.7
COc1cc(SC)ccc1C(=O)NCCc1c[nH]c2ccccc12	-17.2	·	·	0.2

The results go on:
SMILES	MITF inh	Hedgehog inh	YB-1 expr inh	PD-1 reverse act
CC(C)NC(=O)N(C)C[C@H]1Oc2c(NS(=O)(=O)c3cn(C)cn3)cccc2C(=O)N([C@@H](C)CO)C[C@@H]1C	-8.3	-42.5	-0.128	·
N#Cc1ccccc1Sc1ccccc1C(=O)Nc1cccc(CCc2ccccn2)c1	11.4	·	·	0.4
C[C@H](CO)N1C[C@H](C)[C@H](CN(C)S(C)(=O)=O)Oc2ccc(NC(=O)Cn3cnnn3)cc2CC1=O	-12.5	-15.9	0.0781	1.3
COc1ccc(NC(=O)Nc2ccc3c(c2)CC(=O)N([C@@H](C)CO)C[C@@H](C)[C@@H](CN(C)S(=O)(=O)c2ccc(C)cc2)O3)cc1	-5.6	34.7	0.197	-0.5
COc1ccc(CN(C)C[C@@H]2Oc3ccc(NC(=O)Nc4ccc(F)cc4)cc3C(=O)N([C@@H](C)CO)C[C@@H]2C)cc1	-6.6	·	0.0845	2.8
CC(C)NC(=O)N(C)C[C@H]1Oc2ccc(NC(=O)CCC(F)(F)F)cc2C(=O)N([C@@H](C)CO)C[C@H]1C	4.7	·	-0.16	·
C[C@@H]1CN([C@H](C)CO)C(=O)Cc2cc(NC(=O)CCC(F)(F)F)ccc2O[C@H]1CN(C)S(=O)(=O)c1ccccc1	-15.8	38.9	0.029	·
C[C@H](CO)N1C[C@H](C)[C@H](CN(C)Cc2ccc(C(=O)Nc3ccccc3N)cc2)Oc2c(NC(=O)Nc3ccc(C(F)(F)F)cc3)cccc2C1=O	-18.5	·	-1.07	-2.0
C[C@@H]1CN([C@@H](C)CO)C(=O)c2cc(NC(=O)c3ccncc3)ccc2O[C@H]1CN(C)S(=O)(=O)c1cn(C)cn1	-3.7	·	0.0694	2.1
Cc1ccc(S(=O)(=O)N(C)C[C@@H]2Oc3ccc(NS(=O)(=O)c4cccs4)cc3CC(=O)N([C@H](C)CO)C[C@@H]2C)cc1	4.2	6.6	0.067	1.6
C[C@H](CO)N1C[C@H](C)[C@H](CN(C)S(C)(=O)=O)Oc2ccc(NC(=O)CCCCCC(=O)Nc3ccccc3N)cc2CC1=O	-14.5	·	-0.118	-0.3
C[C@H]1CN([C@@H](C)CO)C(=O)c2cccc(N(C)C)c2O[C@H]1CN(C)Cc1ccc(C(=O)O)cc1	0.0	-61.9	0.562	·
C[C@H](CO)N1C[C@H](C)[C@H](CN(C)Cc2ccc3c(c2)OCO3)Oc2c(NC(=O)NC3CCCCC3)cccc2C1=O	17.3	-73.9	-0.00425	0.2
C[C@H](CO)N1C[C@H](C)[C@@H](CN(C)S(=O)(=O)c2cccs2)Oc2c(NC(=O)c3ccncc3)cccc2C1=O	-5.9	-35.8	-0.322	0.7
O=C1CC(c2ccccc2)C(=O)N1c1ccc(F)cc1 (stereo not drawn)	-0.5	-65.0	-0.121	-0.6
Cc1ccc(S(=O)(=O)Nc2cccc3c2O[C@@H](CN(C)S(=O)(=O)c2cccs2)[C@@H](C)CN([C@H](C)CO)C3=O)cc1	14.4	11.5	0.143	-0.9
O=C(NCC1CCCO1)c1ccc2c(=O)n(-c3ccccc3)c(=S)[nH]c2c1 (stereo not drawn)	-28.3	23.4	-0.0404	-0.2
C[C@@H]1CN([C@@H](C)CO)C(=O)c2cccc(NC(=O)Nc3ccc(F)cc3)c2O[C@@H]1CN(C)S(=O)(=O)c1cn(C)cn1	-0.2	-12.6	0.0727	1.0
Cc1ccc(S(=O)(=O)Nc2ccc3c(c2)CC(=O)N([C@@H](C)CO)C[C@H](C)[C@@H](CN(C)CC2CC2)O3)cc1	-11.0	-1.4	0.0244	3.4
CC(C)(C)c1ccc(OCC(=O)NCc2cccnc2)c(Br)c1	5.2	·	·	-2.1
O=S(=O)(CCSc1ccc(C(F)(F)F)cn1)c1ccc(OC(F)(F)F)cc1	16.4	?	-0.168	-1.2
COc1ccc(C)cc1NC(=O)CSc1n[nH]c(-c2ccc(Cl)cc2)n1	44.8	·	·	-0.2
C[C@@H]1CN([C@H](C)CO)C(=O)c2cc(NC(=O)Cc3ccccc3)ccc2O[C@H]1CN(C)S(C)(=O)=O	6.7	-18.1	0.15	·
CC(C)NC(=O)Nc1cccc2c1O[C@@H](CN(C)C(=O)Nc1ccc(F)cc1)[C@H](C)CN([C@H](C)CO)C2=O	11.2	-35.2	-0.0635	1.8
C[C@@H]1CCCCO[C@@H](CN(C)CC2CC2)[C@@H](C)CN([C@H](C)CO)C(=O)c2cc(NC(=O)Nc3ccc(F)cc3)ccc2O1	5.2	·	0.0883	1.4

No new results follow: three of the compounds above.
SMILES	MITF inh	Hedgehog inh	YB-1 expr inh	PD-1 reverse act
C[C@@H]1CN([C@H](C)CO)C(=O)c2cc(NC(=O)Cc3ccccc3)ccc2O[C@H]1CN(C)S(C)(=O)=O	6.7	-18.1	0.15	·
CC(C)NC(=O)Nc1cccc2c1O[C@@H](CN(C)C(=O)Nc1ccc(F)cc1)[C@H](C)CN([C@H](C)CO)C2=O	11.2	-35.2	-0.0635	1.8
C[C@@H]1CCCCO[C@@H](CN(C)CC2CC2)[C@@H](C)CN([C@H](C)CO)C(=O)c2cc(NC(=O)Nc3ccc(F)cc3)ccc2O1	5.2	·	0.0883	1.4

Continued:
SMILES	MITF inh	Hedgehog inh	YB-1 expr inh	PD-1 reverse act
C[C@H]1CN([C@@H](C)CO)C(=O)Cc2cc(NC(=O)Nc3ccc(C(F)(F)F)cc3)ccc2O[C@H]1CN(C)Cc1ccc(C(=O)Nc2ccccc2N)cc1	34.3	·	-0.732	-2.1
C[C@@H]1CN([C@H](C)CO)C(=O)Cc2cc(NS(=O)(=O)c3ccccc3)ccc2O[C@@H]1CN(C)C(=O)Nc1ccccc1	28.3	7.2	-0.176	-1.3
C[C@@H]1CN([C@H](C)CO)C(=O)c2cc(NC(=O)Nc3ccccc3)ccc2O[C@@H]1CN(C)Cc1ccc2c(c1)OCO2	1.4	·	-0.0397	3.1
C[C@H](CO)N1C[C@H](C)[C@H](CN(C)Cc2ccc(Cl)c(Cl)c2)Oc2ccc(NS(C)(=O)=O)cc2CC1=O	-8.2	5.2	-0.278	·
CC(C)NC(=O)Nc1cccc2c1O[C@H](CN(C)C(=O)Nc1ccc(F)cc1)[C@@H](C)CN([C@H](C)CO)C2=O	-7.4	20.0	0.364	0.6
COc1ccc(S(=O)(=O)N(C)C[C@H]2Oc3c(NS(=O)(=O)c4cccs4)cccc3C(=O)N([C@@H](C)CO)C[C@@H]2C)cc1	1.4	11.3	-0.38	0.8
Cc1cc(O)cc2oc3cc(O)cc(O)c3c(=O)c12	·	0.0	0.359	·
COc1ccc(NC(=O)CSc2nnc3c4c5c(sc4nc(-c4ccccc4)n23)CCC5)cc1	41.9	·	·	-4.9
COC(=O)c1ccc(C)c(NC(=O)CN(c2ccc(Cl)c(Cl)c2)S(C)(=O)=O)c1	21.9	·	·	-1.8
C[C@H](CO)N1C[C@H](C)[C@H](CN(C)C(=O)Nc2ccc3c(c2)OCO3)Oc2ccc(NS(=O)(=O)c3ccc(Cl)cc3)cc2C1=O	12.1	·	0.28	·
O=C(CC1Nc2cccc3cccc(c23)NC1=O)Nc1ccc([N+](=O)[O-])cc1 (stereo not drawn)	55.3	·	·	-10.0
CNC[C@H]1Oc2c(NC(=O)c3ccc(-c4nccs4)cc3)cccc2C(=O)N([C@H](C)CO)C[C@@H]1C	-5.5	-11.5	0.393	0.9
COc1ccc(CCNC(=S)Nc2ccncc2)cc1OC	64.1	·	·	-10.1
CN(CC(=O)Nc1ccc(Oc2ccccc2)cc1)S(=O)(=O)c1ccccc1	42.3	·	·	-1.0
COc1cc(COc2cc(N)c(Cl)cc2C(=O)CCC2CCN(CCNS(C)(=O)=O)CC2)cc(OC)c1	-8.6	-47.2	0.377	-18.4
C[C@@H]1CN([C@@H](C)CO)C(=O)c2cc(NC(=O)Nc3ccc(C(F)(F)F)cc3)ccc2O[C@@H]1CN(C)C(=O)Nc1ccc(F)cc1	50.7	57.1	-0.436	-5.6
Cc1ccc2oc(-c3cccc(NC(=O)COc4ccc(Cl)cc4)c3C)nc2c1	?	·	·	-3.2
COCCNC(=S)N1CCN(Cc2ccco2)CC1	-5.9	·	·	3.1
C[C@@H]1O[C@@H](Oc2ccc(-c3coc4cc(O[C@@H]5O[C@@H](C)[C@H](O)[C@@H](O)[C@H]5O)ccc4c3=O)cc2)[C@H](O)[C@H](O)[C@H]1O	-4.7	-0.5	-0.184	2.7
C[C@H]1CN([C@@H](C)CO)C(=O)Cc2cc(NC(=O)NC3CCCCC3)ccc2O[C@H]1CN(C)S(C)(=O)=O	-9.2	-14.9	-0.514	1.3
COc1ccc(CC(=O)Nc2cccc(-c3nnc(-c4ccc(C)cc4)o3)c2)cc1OC	100.9*	·	·	1.1
C[C@@H]1CCCCO[C@H](CN(C)Cc2ccc3c(c2)OCO3)[C@@H](C)CN([C@H](C)CO)C(=O)c2cc(NC(=O)NC3CCCCC3)ccc2O1	-2.3	·	-0.417	·
